Source: PubChem
RE007 growth inh – less growth of the S. pombe RE007 Vpr strain. S. pombe RE007 Vpr strain, BacTiter-Glo ATP luminescence, 24 h; control for the full effect not named in the record. Potency, µM (doses to about 92.2 µM), inactives show at the highest dose activity change, negative = less growth. hit rate 0.21% among 360,000. AID 651644; active = well fitted falling curve with a large enough effect; inconclusive = small, poorly fitted or top-dose-only effect; inactive = no such curve, though single readings can be large or run the other way;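 further: on the % scale 0 is the no-effect control and ±100 the full control effect; nearly all actives have a fitted effect of over 50% in size; the assay follows cell death caused by Vpr and the record does not say whether a fall means rescue or toxicity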
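Fission yeast strain RE007, carrying one chromosomally integrated HIV-1 vpr copy, was seeded at OD 0.01 in PMG+AL medium with 23 nL pinned compound. After 24 h at 30 °C and 99% humidity, viability was read by BacTiter-Glo luminescence.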
MARV entry inh – inhibitors of Marburg virus binding or cell entry; Marburg virus pseudotyped entry inhibition, cell reporter; control for the full effect not named in the record; about a third of the inactives were read at about 46 µM; Potency, µM (doses to about 37.8 µM), inactives show top-dose activity change, negative = inhibition, most hits filed as inhibitors; hit rate 1.8% among 300,000; active = well fitted inhibition curve with a large enough effect; inconclusive = small, poorly fitted or top-dose-only effect, or effect the other way; inactive = flat fitted curve, though single readings scatter; tested in HEK293 cells; about a fifth of its hits are not listed in these tables; further: on the % scale 0 is the no-effect control and ±100 the full control effect; luciferase read-out
Cruzain Triton – inhibitors of Trypanosoma cruzi cruzain with detergent; purified cruzain, Z-FR-AMC fluorescence, 0.01% Triton; hit rate 0.43% among 200,000; P25779; Potency, µM, without a hit: max response, negative = inhibition, most hits filed as inhibitors; AID 1478; active means well fitted curve in the direction sought with a large enough effect; inconclusive means small, poorly fitted or top-dose-only effect, or another doubt; inactive means no such curve, though single readings can be large; an effect the other way counts as inactive or inconclusive;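 further: plate controls were neutral wells for no effect and buffer without enzyme for full effect; nearly all actives have a fitted effect of over 40% in size; top concentration of the series not given in the record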
Target sequence (P25779 123-467 limits assumed): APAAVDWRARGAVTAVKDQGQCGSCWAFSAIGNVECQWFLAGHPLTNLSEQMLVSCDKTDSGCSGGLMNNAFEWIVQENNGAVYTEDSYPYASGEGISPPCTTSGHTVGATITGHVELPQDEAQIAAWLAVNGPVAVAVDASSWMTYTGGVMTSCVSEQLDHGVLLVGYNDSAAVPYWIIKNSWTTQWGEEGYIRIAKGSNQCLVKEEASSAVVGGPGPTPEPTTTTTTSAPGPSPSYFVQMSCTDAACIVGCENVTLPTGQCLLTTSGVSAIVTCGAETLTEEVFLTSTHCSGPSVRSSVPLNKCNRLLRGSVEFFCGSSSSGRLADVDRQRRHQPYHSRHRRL
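Cysteine protease activity tested under reducing, mildly acidic conditions (100 mM sodium acetate pH 5.5, 5 mM DTT) plus 0.01% Triton X-100. Cruzain 1.5 nM; substrate Z-FR-AMC 2 uM; 15 min compound preincubation at room temperature.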
NS1 inh – blocks influenza NS1 protein function | S. cerevisiae slowed by influenza A NS1, growth recovery by OD600 | Potency, µM (doses to about 46.1 µM), for inactives: at the highest dose activity, positive = more growth | hit rate 0.4% among 270,000; further: actives are rising curves; nearly all actives have a fitted effect of over 50% in size
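Growth recovery, yeast-based: influenza A NS1 expressed in S. cerevisiae causes slow growth, and suppressors are detected by OD600. The parent strain without NS1 is used as positive control.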
LASV entry inh – inhibitors of Lassa virus binding or cell entry; Lassa virus pseudotype entry inhibition, cell reporter; control for the full effect not named in the record; Potency, µM (series often up to 37.9 µM), for the others: top-dose activity change, negative = inhibition, most hits filed as inhibitors; hit rate 1.2% among 300,000; AID 540256; active means well fitted inhibition curve with a large enough effect; inconclusive means small, poorly fitted or top-dose-only effect, or effect the other way; inactive means flat fitted curve, though single readings scatter; tested in HEK293 cells; further: on the % scale 0 is the no-effect control and ±100 the full control effect; nearly all actives have a fitted effect of over 50% in size; luciferase read-out
Cruzain noTriton – blocks cruzain activity in detergent-free assay. Potency, µM, for inactives: max response, negative = inhibition, actives largely listed as inhibitors. hit rate 2.3% among 200,000. purified cruzain, Z-FR-AMC fluorescence, no detergent. P25779; active means well fitted curve in the direction sought with a large enough effect; inconclusive means small, poorly fitted or top-dose-only effect, or another doubt; inactive means no such curve, though single readings can be large; an effect the other way counts as inactive or inconclusive;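 further: plate controls were enzyme without inhibitor for no effect and buffer without enzyme for full effect; nearly all actives have a fitted effect of over 40% in size; top concentration of the series not given in the record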
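Purified cruzain at 1.5 nM, pre-incubated 15 min with compound at room temperature in 100 mM sodium acetate pH 5.5, 5 mM DTT, 0.00005% Triton X-100. Reaction started with 2 uM Z-FR-AMC; AMC fluorescence increase over 60 s gives rate.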
SARS PLpro yeast – SARS-CoV PLP inhibition in yeast | S. cerevisiae expressing SARS-CoV PLpro, growth rescue; control for the full effect not named in the record | Potency, µM (doses to about 32.9 µM), inactives show at the top dose activity, positive = growth rescue | hit rate 0.19% among 330,000 | AID 485353; further: 0% is about no effect; nearly all actives have a fitted effect of over 55% in size; growth read by luminescence after 48 h
2A StopGo – FMDV 2A StopGo reporter, luciferase signal; human cells with a luciferase reporter of 2A StopGo recoding; control for the full effect not named in the record; Potency, µM (titrated, usually from 57.9 µM), for the others: at the top dose signal change, negative = less light; hit rate 1.2% among 410,000; active = well fitted falling curve with a large enough effect; inconclusive = small, poorly fitted or top-dose-only effect; inactive = no such curve, though single readings can be large or run the other way; tested in HEK293T cells; further: on the % scale 0 is the no-effect control and ±100 the full control effect; nearly all actives have a fitted effect of over 45% in size; luciferase light after 4 h
* hit, by the source's call; ? = inconclusive; nt = not tested or not shown; & = joins results of further samples; [ ] = dose if it differs, or a comment. Unless noted, the call rests on the fitted dose curve; in most records, active means well fitted rising curve with a large enough effect; inconclusive means small, poorly fitted or top-dose-only effect; inactive means no such curve, though single readings can be large or run the other way. Potency means the concentration at half of the fitted maximal effect.

Screens in order – Cruzain noTriton | 2A StopGo | SARS PLpro yeast | LASV entry inh | NS1 inh | RE007 growth inh | MARV entry inh | Cruzain Triton
> CCCCn1c(N)c(N(CC(C)C)C(=O)c2ccc(F)c(S(=O)(=O)N3CCOCC3)c2)c(=O)[nH]c1=O
  nt | -15.8% | 5.5% | 13.7% | nt | -11.9% | -1.6% | nt
> Fc1ccccc1N1CC(c2ccccc2)C(c2cccs2)=N1 (stereo not given)
  -14.6% | -5.1% | -21.5% | 10.5% | 8.3% | 7.1% | 0.0% | -5.3%
> N=C1/C(=C\c2ccc(-c3cccc(C(=O)O)c3)o2)C(=O)N=C2SC=C(c3ccccc3)N12
  nt | -3.9% | 0.2% | nt | 8.8% | -5.4% | nt | nt
> CCN1CCN(CC(=O)Nc2sc3c(c2C#N)CCC(C)C3)CC1 (stereo not given)
  -7.0% | 0.0% | ? | 6.4% | -11.3% | -22.5% | ? | 0.4%
> Cc1ccccc1S(=O)(=O)N(CC(O)CN1C(=O)NC(C)(C)C1=O)c1ccccc1 (stereo not given)
  nt | 28.7% | -0.4% | -0.1% | 7.8% | 3.6% | 3.3%[46.1 µM] | nt
> COC(=O)c1ccc(C2CC(=O)Nc3c2c(C)nn3-c2nc(C)cc(C)n2)cc1 (stereo not given)
  11.1% | 11.0% | nt | -7.3%[46.1 µM] | nt | nt | 19.2%[46.1 µM] | -3.8%
> Nc1ccc(Oc2ccc(F)cc2)nc1
  nt | 5.4% | -0.5% | nt | 1.2% | -2.2% | nt | nt
> Cc1c(C(=O)N2c3ccccc3Sc3ccccc32)cccc1[N+](=O)[O-]
  ? | -14.6% | -0.4% | ? | 3.9% | 61.3% | ? | -2.2%
> ClCCN(CCCl)c1ccc(C2=NCCc3ccccc32)cc1
  nt | ? | nt | ? | nt | ? | ? | nt
> COc1cc2[nH]c3c(=O)n(N)c(=O)[nH]c3c2cc1OC
  nt | -10.1% | -1.8% | -5.9% | 2.6% | 35.6% | -8.7%[46.1 µM] | nt
> N#Cc1cccc(S(=O)(=O)NCC(=O)NCCCc2ccccc2)c1
  nt | 0.5% | -1.0% | -12.6% | 3.0% | 2.4% | -6.2% | nt
> COC(=O)c1ccccc1NC(=O)Cn1c(=O)n(Cc2ccccc2)c(=O)c2c(C)c(C)sc21
  ? | -0.4% | -8.5% | -10.1% | 5.1% | 6.1% | -15.0% | -1.3%
> Cc1nc2cc(S(=O)(=O)N3CCC(C(=O)O)CC3)ccc2n1C1CCCC1
  -5.4% | 5.7% | 0.7% | 17.8% | 0.4% | 5.2% | 18.3% | 2.9%
> Cc1cccc(OCCCCNCc2ccccc2)c1
  nt | -22.7% | -0.4% | -29.1% | nt | -4.1% | ? | nt
> c1ccc(Oc2ncnc3oc(-c4ccccc4)cc23)cc1
  6.8% | 4.5% | -0.1% | -0.5% | -7.9% | 8.1% | 30.8% | 3.2%
> O=C(O)CCSc1nnc(-c2ccc(Cl)cc2Cl)o1
  3.9% | -17.5% | nt | ? | nt | nt | ? | -3.2%
> Cc1ccc(C(=O)COC(=O)CNC(=O)C(c2ccccc2)c2ccccc2)cc1[N+](=O)[O-]
  -25.3% | -0.5% | 3.1% | 0.0% | 10.2% | 16.0% | -1.2% | -26.9%
> Cc1ccc(S(=O)(=O)NNC(=O)c2sc(=S)n(C)c2C)cc1
  -4.9% | -6.4% | nt | -1.3% | 0.3% | 1.0% | 4.7% | -8.9%
> CSCC(O)Cn1ncc2ccccc2c1=O (stereo not given)
  nt | 47.4%[activator] | -4.8% | nt | -2.7% | 14.9% | nt | nt
> NS(=O)(=O)c1ccc(NC(=O)/C=C/c2cn(-c3ccccc3)nc2-c2cccc(Cl)c2)cc1
  nt | 1.3% | 0.5% | ? | ? | 11.7% | ? | nt
> CC[C@]1(c2cccc(C)c2)C(=O)N(C(=O)OC)N1C(=O)OC
  nt | ? | 4.5% | nt | 9.3% | -10.5% | nt | nt
> CC(C)(C)c1ccc(Oc2ccc(NC(=O)CCCC(=O)O)cn2)cc1
  nt | 8.6% | -0.2% | 3.2% | 3.4% | -8.8% | 1.5%[46.1 µM] | nt
> Cc1cccn2cc(CCNC(=O)c3ccco3)nc12
  -7.5% | 2.4% | ? | nt | 6.6% | -4.6% | nt | 5.0%
> O=C(CSc1nnc(-c2ccncc2)o1)Nc1cccc(F)c1
  nt | 14.8% | -6.3% | ? | nt | -5.7% | 12.6%[46.1 µM] | nt
> Cc1cccc(N=Cc2c(O)cc(C)oc2=O)c1
  nt | -13.6% | 0.2% | 6.3% | nt | -8.1% | -19.6%[46.1 µM] | nt
> O=C(Nc1cccc(NC(=O)c2ccc(Br)o2)c1)c1ccccc1
  -6.1% | 38.2%&36.0%[activator] | -32.7% | 2.6% | -30.9% | -10.5% | 21.0% | -6.5%
> CCn1cnc2c1c(=O)n(CC(=O)N1CCc3ccccc31)c(=O)n2Cc1ccccc1
  ? | 4.1% | -5.5% | 21.6% | -10.5% | -13.4% | -9.1%&-9.1% | -1.3%
> CC(C)Oc1ccc2nnnn2n1
  -11.3% | -7.9% | -21.8% | -1.8% | -4.6% | 15.5% | 0.9%[46.1 µM] | 2.0%
> CC(=O)Oc1ccc(C(=O)c2ccccc2)c(OC(C)=O)c1
  nt | 2.5% | -1.6% | 15.3% | nt | 35.7% | -7.7%&-7.7%[46.1 µM] | nt
> Cc1cc(C)n2nc(NCc3ccccc3Cl)nc2n1
  8.3% | -7.5% | nt | -2.6%[46.1 µM] | nt | nt | 8.3%[46.1 µM] | -6.8%

Reprinted from the part before: 5 entries, followed by the next part.
Screens in order – Cruzain noTriton | 2A StopGo | SARS PLpro yeast | LASV entry inh | NS1 inh | RE007 growth inh | MARV entry inh | Cruzain Triton
> O=C(Nc1cccc(NC(=O)c2ccc(Br)o2)c1)c1ccccc1
  -6.1% | 38.2%&36.0%[activator] | -32.7% | 2.6% | -30.9% | -10.5% | 21.0% | -6.5%
> CCn1cnc2c1c(=O)n(CC(=O)N1CCc3ccccc31)c(=O)n2Cc1ccccc1
  ? | 4.1% | -5.5% | 21.6% | -10.5% | -13.4% | -9.1%&-9.1% | -1.3%
> CC(C)Oc1ccc2nnnn2n1
  -11.3% | -7.9% | -21.8% | -1.8% | -4.6% | 15.5% | 0.9%[46.1 µM] | 2.0%
> CC(=O)Oc1ccc(C(=O)c2ccccc2)c(OC(C)=O)c1
  nt | 2.5% | -1.6% | 15.3% | nt | 35.7% | -7.7%&-7.7%[46.1 µM] | nt
> Cc1cc(C)n2nc(NCc3ccccc3Cl)nc2n1
  8.3% | -7.5% | nt | -2.6%[46.1 µM] | nt | nt | 8.3%[46.1 µM] | -6.8%
> O=C1CCCc2c1nc(-c1ccco1)n2O
  6.3% | -23.5% | 11.6% | -0.7% | 13.3% | 6.0% | 19.3% | -4.3%
> Cc1ccc(S(=O)(=O)N2CCCOC2CNC(=O)C(=O)NCc2ccccc2C)cc1 (stereo not given)
  nt | 12.6% | 1.3% | -23.2% | 3.3% | 4.6% | ? | nt
> C=CCNC(=O)/C(C#N)=C/c1c(N(Cc2ccccc2)Cc2ccccc2)nc2ccccn2c1=O
  ? | -17.3% | 0.0% | ? | ? | 14.6% | ? | -7.7%
> CCOC(=O)c1cccc(NS(=O)(=O)c2cn(C)c(C)n2)c1
  6.2% | -2.8% | nt | 11.3%[46.1 µM] | nt | nt | nt | -1.0%
> O=C1NC(=O)C(C(CC(=O)c2ccccc2)c2ccccc2)C(=O)N1 (stereo not given)
  nt | 12.4% | 0.2% | 2.2% | 1.0% | 0.1% | 11.5%[46.1 µM] | nt
> Cc1cc(C)c(C(=O)O)c(Cl)n1
  nt | -11.5% | 0.6% | 9.4%[46.1 µM] | nt | 4.5% | 14.6%[46.1 µM] | nt
> COc1ccc(N(C)S(=O)(=O)c2cccc(C(=O)Nc3cc(OC)ccc3OC)c2)cc1
  nt | ? | -1.8% | ? | nt | -27.6% | ? | nt
> Cc1oc(-c2ccccc2F)nc1CSCC(=O)NC1CCC(C)CC1 (stereo not given)
  nt | ? | -7.6% | 3.6%[46.1 µM] | -40.1% | 6.0% | -21.2%[46.1 µM] | nt
> Cc1oc2c(c1C(=O)NCCO)CCCC2
  -0.4% | -8.1% | 7.2% | 13.3% | 6.8% | 27.4% | 1.5% | -2.8%
> Cc1ccc(NC(=O)CNc2cccc(S(=O)(=O)N3CCCCC3)c2)cc1F
  nt | ? | 0.8% | -21.0% | nt | -1.9% | ? | nt
> O=C(Cc1ccccc1)NNC1CC(=O)N(c2ccccc2)C1=O (stereo not given)
  2.1% | -10.0% | 15.7% | 14.9% | 2.8% | -13.1% | -3.1% | -0.8%
> Clc1ccc(-c2cc(C3CCNCC3)[nH]n2)c(Cl)c1
  nt | -7.1% | -0.3% | ? | nt | 7.9% | ? | nt
> Cc1ccc(NC(=O)Cn2c(=O)n(Cc3ccccc3)c(=O)c3c(C)c(C)sc32)c(C)c1
  -2.7% | -3.9% | nt | 3.5%[46.1 µM] | nt | nt | -16.2%[46.1 µM] | -0.5%
> COc1cc(OC)cc(C(=O)NC(=S)N2CCCCC2c2cccnc2)c1 (stereo not given)
  nt | -19.6% | 4.4% | nt | 14.2% | -2.1% | nt | nt
> O=c1[nH]c(/C=C\c2cccc(F)c2)nc(O)c1[N+](=O)[O-]
  nt | -1.2% | 1.1% | -12.7% | 14.8% | 6.0% | 5.3% | nt
> CC(=O)Nc1ccc(NC(=O)Cn2cnc3c(cnn3C(C)(C)C)c2=O)cc1
  -7.9% | 30.9%[activator] | 6.5% | 6.7% | 8.4% | -1.8% | -10.6% | -2.5%
> COc1cccc(NC(=O)CSc2nc3ccc(NC(=O)c4ccco4)cc3s2)c1
  -2.0% | 39.8µM* | nt | -17.8%[46.1 µM] | nt | nt | ? | -3.8%
> C/C(=N\NC(=O)CCc1c(C)n[nH]c1C)c1ccc([N+](=O)[O-])cc1
  nt | -7.9% | 1.4% | nt | 0.9% | -1.7% | nt | nt
> COC(=O)c1ccc(NC(=O)C(C)N2C(=O)c3ccccc3C2=O)cc1 (stereo not given)
  -9.7% | 0.0% | 1.2% | -21.2% | -1.4% | 16.7% | 0.0% | -2.7%
